Screening data: PubChem, National Center for Advancing Translational Sciences (NCATS)
NPR1 antag: blocks ANP-stimulated signaling of human Npr1 receptor; P16066; AID 1347048; Potency, µM (titrated, usually from 46.3 µM), for the others: at the top dose activity change, negative = inhibition, usual class: inhibitors; HEK293 hNpr1 GloSensor cGMP, ANP-stimulated luminescence; actives 1.6% (n = 76,000); active = well fitted inhibition curve with a large enough effect; inconclusive = small, poorly fitted or top-dose-only effect; inactive = no such curve, though single readings can be large or run the other way;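 further: nearly all actives have a fitted effect of over 60% in size; nearly all hits also lower the signal before the agonist is added; a reference antagonist and vehicle were the controls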
Target sequence (P16066 whole entry, looked up): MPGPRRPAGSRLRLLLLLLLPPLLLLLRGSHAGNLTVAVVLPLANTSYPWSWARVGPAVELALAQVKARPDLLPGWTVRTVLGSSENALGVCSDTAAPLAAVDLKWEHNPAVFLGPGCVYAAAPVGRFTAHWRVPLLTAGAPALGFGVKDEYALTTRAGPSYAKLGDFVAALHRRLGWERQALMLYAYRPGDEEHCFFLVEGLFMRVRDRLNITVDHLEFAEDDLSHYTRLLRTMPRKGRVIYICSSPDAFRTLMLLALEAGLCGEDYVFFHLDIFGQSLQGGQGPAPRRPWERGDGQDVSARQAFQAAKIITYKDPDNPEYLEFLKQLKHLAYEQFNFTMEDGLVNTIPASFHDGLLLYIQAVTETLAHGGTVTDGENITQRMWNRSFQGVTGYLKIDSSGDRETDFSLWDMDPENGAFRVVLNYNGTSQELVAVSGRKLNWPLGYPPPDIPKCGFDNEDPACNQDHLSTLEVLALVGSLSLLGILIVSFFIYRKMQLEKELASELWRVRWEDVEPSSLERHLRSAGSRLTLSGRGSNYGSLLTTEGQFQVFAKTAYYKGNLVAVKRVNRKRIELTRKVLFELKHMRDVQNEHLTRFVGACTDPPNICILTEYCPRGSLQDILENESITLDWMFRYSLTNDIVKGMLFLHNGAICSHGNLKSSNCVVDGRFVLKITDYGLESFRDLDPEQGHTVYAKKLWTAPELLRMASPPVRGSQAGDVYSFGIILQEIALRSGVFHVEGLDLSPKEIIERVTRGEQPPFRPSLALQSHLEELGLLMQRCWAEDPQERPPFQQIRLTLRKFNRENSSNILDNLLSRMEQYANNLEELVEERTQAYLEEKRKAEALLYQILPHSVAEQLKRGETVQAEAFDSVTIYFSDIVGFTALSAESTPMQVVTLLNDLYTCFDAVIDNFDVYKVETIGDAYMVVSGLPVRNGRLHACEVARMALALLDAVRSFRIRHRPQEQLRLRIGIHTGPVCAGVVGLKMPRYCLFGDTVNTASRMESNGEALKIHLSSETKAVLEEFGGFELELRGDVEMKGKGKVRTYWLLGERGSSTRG
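Compound pre-incubated 30 min at room temperature on GloSensor-loaded HEK293 cells stably carrying hNpr1 and the pGS-40F cGMP biosensor. Stimulation uses hNppA at 0.1 nM final; luminescence is taken at baseline and 20 min post-agonist.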
Active calls of the source: *; ? = inconclusive; [ ] = remark or other dose. On the % scale 0 is the no-effect control and ±100 the full control effect; potency means the concentration at half of the fitted maximal effect. Not all compounds are listed; rates above refer to the full screens.

SMILES | NPR1 antag
COc1ccc(-c2ccc3c(c2)C(=O)N2CCN(C(=O)CC4(CC(=O)O)CCCC4)C[C@H]2C(=O)N3)cc1 | 3%
CN(C)c1cccc(-c2cnc(Nc3cccc(N[S+](C)(=O)[O-])c3)c3c2CCO3)c1 | ?
Cn1nc2n(c1=O)CCN(CC1CCCCC1)CC2 | 1%
COc1ccc(C(=O)N[C@@H]2CCC[C@@H]2C(=O)N2CCN(c3ccccc3F)CC2)cc1 | -1%
CC(C)CCN(C1CCOCC1)C1CCN(C(=O)c2ccc(F)cc2)CC1 | -2%
O=C1CC(c2ccccc2)N(C(=O)Nc2ccccc2)CCCCCN1 (centres undefined) | -1%
COCC1CN(Cc2cccc3[nH]ccc23)CC12CCNCC2 (centres undefined) | -2%
Cc1ccsc1C(=O)N1CC[C@@H]2COCCN(Cc3cccnc3)[C@@H]2C1 | 1%
O=C(NCCc1cccc(Oc2ccccc2)c1)[C@H]1CCC[C@H](O)C1 | 14µM*
COCC(=O)NC[C@H]1CCN(Cc2ccc(Br)o2)C[C@H]1N(C)C | 10%
COc1ccc(-c2ccc3nnc(CNC(=O)c4ccc(C#N)cc4)n3n2)cc1 | -1%
CCCN(CC1CCOC1)C(=O)c1ccc(Br)o1 (centres undefined) | 6%
COCCNC(=O)C(NC(=O)c1ccccc1)C1CCN(C(=O)C2CC2)CC1 (centres undefined) | 0%
Cn1c(CN2CCN(c3ncccc3C#N)CC2)nnc1C1CC(N)C1 (centres undefined) | 4%
CCC(C)NC(=O)C(NC(=O)c1ccccc1Cl)C1CCN(C(=O)CCc2ccccc2)CC1 (centres undefined) | -1%
O=C(NCC1CCCO1)Nc1cccc(-c2nnc3n2CCCC3)c1 (centres undefined) | -12%
COc1cc(NC(=O)Nc2cccc(-c3ccc(N4CCOCC4)nn3)c2)cc(OC)c1 | ?
Cc1ccc(NC(=O)Cn2c(C)cc3nc4n(c(=O)c32)CCC4)cc1 | 2%
OC[C@@H]1CN(Cc2ccc(F)cc2)C[C@H]1c1nc(-c2ccncc2)no1 | 14µM*
CC(C)NC(=O)N1CCNc2cnc(Nc3cccc(C(F)(F)F)c3)nc2C1 | 13µM*
CNC(=O)[C@H]1C[C@H](Oc2cccnc2)CN1S(=O)(=O)c1ccc(OC)cc1 | -7%
Cc1ccc(C)c(C(=O)NCc2nnc3cc(-c4nc(C5CC5)no4)ccn23)c1 | -19%
CCCn1ncc(C(=O)NCC2(O)CCCNC2)c1C (centres undefined) | 1%
CC(C)C(O)C1CCN(c2nccc(-c3cc(C(=O)O)ccn3)n2)CC1 (centres undefined) | 0%
COC[C@H]1C[C@@H](NS(=O)(=O)c2ccc(F)cc2)[C@H](O)[C@@H]1O | 1%[70.6 µM]

5 entries already listed, sorted by their value in NPR1 antag, descending.
smiles | NPR1 antag
COCC(=O)NC[C@H]1CCN(Cc2ccc(Br)o2)C[C@H]1N(C)C | 10%
Cn1c(CN2CCN(c3ncccc3C#N)CC2)nnc1C1CC(N)C1 (centres undefined) | 4%
CCCn1ncc(C(=O)NCC2(O)CCCNC2)c1C (centres undefined) | 1%
COc1ccc(-c2ccc3nnc(CNC(=O)c4ccc(C#N)cc4)n3n2)cc1 | -1%
COCC1CN(Cc2cccc3[nH]ccc23)CC12CCNCC2 (centres undefined) | -2%

(next part)
SMILES | NPR1 antag
C[C@H]1[C@@H]2[C@@H](O)C([C@H](C)C(=O)N3CCCCC3)CC[C@@]2(C)CC[C@@H]1NC(=O)c1ccccn1 (some centres undefined) | -4%
Cc1nc([C@@H]2CN(C(=O)c3sccc3C)C[C@H]2C(N)=O)n[nH]1 | 1%
COc1ccc(S(=O)(=O)N2CCn3nnc(CCC(=O)N4CCOCC4)c3C2)cc1 | -15%
COc1ccc(C2(C(=O)N3C[C@@H](CO)[C@H](c4nc(C)no4)C3)CC2)cc1 | 3%
COCc1cc(=O)n(CC(=O)Nc2ccc(OC)cc2)c(N2CCOCC2)n1 | -8%
CC(=O)Nc1ccc(NC(=O)Cn2nc3c(cc2=O)CCCCC3)cc1 | 0%
COc1ccccc1-c1ccnc(N[C@H]2CO[C@H]3[C@@H]2OC[C@@H]3NC(=O)NC2CCCCC2)n1 | -2%
O=C(Nc1ccc(Oc2ccccc2)cc1)N[C@H]1CO[C@H]2[C@@H]1OC[C@@H]2n1nnnc1Oc1ccccc1 | -23%
O=C(NC1CCCCC1)N1CCC(c2noc(-c3ccncc3)n2)C1 (centres undefined) | 3%
Cc1cc(C)c(CNC(=O)c2nc(-c3cccc(N4CCOCC4)c3)cc3[nH]ccc23)c(=O)[nH]1 | 0%
CCNC(=O)N[C@H]1C[C@@H](Cc2cc(C(C)(C)C)on2)C1(C)C | -7%[70.6 µM]
CC(Cn1cncn1)C(=O)N1CCC2(CC1)CN(CCOc1ccccc1)C(=O)O2 (centres undefined) | 15%
Cc1c(CC(=O)NC(C)C2CC2)c2c(n1Cc1ccccc1F)CCCC2=O (centres undefined) | -5%
O=C(NCc1ccccc1F)c1ccc2c(c1)CN(Cc1ccc(O)c(F)c1)CCO2 | -27%
Cc1cc(CC(C)n2ccnc2-c2cc3n(n2)CCCNC3)n[nH]1 (centres undefined) | 2%
Cc1ccc(C)c(C(=O)N2CC(C(=O)NCCc3ccncc3)C3(CCOCC3)C2)c1 (centres undefined) | -1%
COc1ccc(NC(=O)Cn2c(C)cc3nc4n(c(=O)c32)CCC4)cc1Cl | -4%
O=C(NC1CCOCC1)C1=NO[C@@H]2CN(c3ccc(F)c(Cl)c3)C[C@H]12 | -1%[70.6 µM]
N#Cc1cccc(CN2CC[C@H](c3nc4ccccc4o3)C2)c1 | -23%[70.6 µM]
CCN1CCC(c2nc3ccc(F)cc3c(=O)[nH]2)CC1 | 4%[70.6 µM]
O=C(NCc1ccccc1F)c1ccc2c(c1)CN(C1CCSCC1)CCO2 | 2%
CCCS(=O)(=O)N1CCC(Cc2nc(-c3ccncc3)n[nH]2)C1 (centres undefined) | 2%
O=C(c1ccccc1)N1CCC(c2nc(C3CCOCC3)no2)C1 (centres undefined) | 0%
O=C1c2c(-c3nc(-c4ccsc4)no3)nnn2CCN1Cc1ccccc1F | 0%
CC(C)CCN1CCn2c(nnc2-c2cccnc2)C1 | 0%[70.6 µM]

Overlap with the part before: 2 compounds, then new ones.
SMILES | NPR1 antag
O=C1c2c(-c3nc(-c4ccsc4)no3)nnn2CCN1Cc1ccccc1F | 0%
CC(C)CCN1CCn2c(nnc2-c2cccnc2)C1 | 0%[70.6 µM]
CC(=O)Nc1ccc(C2(C(=O)NCc3ccc(C)o3)CCC2)cc1 | 0%
CCCCCC(=O)N[C@H]1C[C@@H](Cc2cc(COC(=O)CCCCC)on2)C1(C)C | -2%[70.6 µM]
COCCN1CCC(N2CCN(C(=O)c3cccc(Cl)c3)CC2)C1=O (centres undefined) | 1%
COc1ccc(CN2CCc3nc(C(=O)Nc4ccc(Cl)cc4)oc3CC2)cc1OC | 6.3µM*
CO[C@H]1C(=O)N(C2CCN(C(=O)c3cnccc3C)CC2)[C@H]1c1ccncc1 | 0%
Cc1ccccc1OCC(=O)Nc1cccn2nc(-c3cccnc3)nc12 | 0%
CC(C)CN(CC1CN(C(=O)c2ccc(Cl)c(Cl)c2)CCO1)C(=O)c1cccc(F)c1 (centres undefined) | -18%
CCc1nn(-c2ccccc2)c(Oc2ccccc2OC)c1CCC(=O)NCC1CC1 | -29%
COc1ccc(-c2noc(-c3nc(-c4ccc5c(c4)OCO5)no3)n2)cc1 | 0%
CC(=O)NC[C@@H]1C=C(C)[C@H](Cc2nnc(-c3cncn3C)o2)C[C@H]1C(C)C | 13%[70.6 µM]
COc1cccc(OCC(=O)c2ccc3c(c2)N(CCCC(=O)NCC2CCCO2)C(=O)CO3)c1 (centres undefined) | -1%
COCc1cc(=O)n(CC(=O)Nc2cccc(Br)c2)c(N2CCOCC2)n1 | -15%
CC(C)C1CN(C(=O)c2cncc(F)c2)CCC(=O)N1Cc1ccc(F)cc1 (centres undefined) | -8%
COc1ccccc1-c1cc(C(=O)NCc2ccnc(N)c2)c2c(c1)ncn2C | -11%[70.6 µM]
COc1ccc(C2(C(=O)NC3CCN(C(=O)N4CC5CC(C4)[C@H]4CCCC(=O)N4C5)CC3)CC2)cc1 (some centres undefined) | 0%
COC[C@@H]1CN(S(=O)(=O)c2cnc[nH]2)C[C@H]1c1ccccn1 | 1%
Cc1nc(C)c(C(=O)N2CCCC(COc3ccccc3C(=O)N3CCCC3)C2)s1 (centres undefined) | -8%
CS(=O)(=O)N[C@H]1C[C@H]2C(=O)Nc3ccc(-c4cccc(C(F)(F)F)c4)cc3C(=O)N2C1 | 0%
COC[C@@H]1CN(C(=O)c2ccc(OC)nc2)C[C@H]1c1nc(C)no1 | 6%
COc1ccccc1CC(=O)N1CCN(c2cc(-c3cccs3)[nH]n2)CC1 | ?
Cc1oc(C(O)c2ccccc2)nc1C(=O)Nc1ccc(C(=O)Nc2ccccc2)cc1 (centres undefined) | ?
COc1ccc(C(=O)N2CCCC(c3nc(-c4cnccn4)no3)CCNC(=O)CC2)c(OC)n1 (centres undefined) | 2%
CC(C)c1noc(C2CCCNCCC(=O)NCC2)n1 (centres undefined) | 5%
N#Cc1ccc(S(=O)(=O)N2CC(C(=O)NC3CCCCC3)C3(CCOCC3)C2)cc1 (centres undefined) | 5%
CN(Cc1cn(-c2ccccc2)nn1)Cc1noc2c1CCCC2 | 0%

Compounds shown so far that contain a CF3 group, in the order listed:
SMILES | NPR1 antag
CC(C)NC(=O)N1CCNc2cnc(Nc3cccc(C(F)(F)F)c3)nc2C1 | 13µM*
CS(=O)(=O)N[C@H]1C[C@H]2C(=O)Nc3ccc(-c4cccc(C(F)(F)F)c4)cc3C(=O)N2C1 | 0%

Other structures:
SMILES | NPR1 antag
COC1C(=O)N(c2cccc(F)c2)C12CCN(C(=O)Nc1ccccc1)CC2 (centres undefined) | 1%
COc1cccc(CN2CCCC3(CCN(C(=O)c4ccccn4)C3)C2=O)c1OC (centres undefined) | 0%
Cc1ccccc1N1Cc2c(NCCc3ccccc3F)ncnc2N(C)CC1=O | -2%
Cc1noc2c(NC3CCC(O)CC3)cc(-c3ccc(Cl)cc3)nc12 (centres undefined) | 7%[70.6 µM]
Cn1cnc2cc(-c3ccc(F)cc3)cc(C(=O)NCCc3ccccn3)c21 | 0%[70.6 µM]
COc1ccc(-n2nc(C)c([C@@H]3C=C[C@@H](NC(=O)Nc4ccccc4)C3)c2C)cc1 | 14µM*
COc1ccc(NC(=O)N2CCC3(CC2)SCC(=O)N3c2ccc(OC)cc2)cc1 | -8%
O=C(c1cccnc1)N1CCC2(CNc3ccccc3[S+](=O)([O-])N2)C1 (centres undefined) | 13%
Cc1ccccc1OCc1nc(C2CN(C(=O)COc3ccc(F)cc3)C2)no1 | -13%
CCCN(CCC)C(=O)C1COC2(CCC(C)CC2)N1C(=O)c1ccccc1F (centres undefined) | -1%
COc1cccc(-c2cccc(C(=O)N3CCC4(CCCN(C)C4=O)C3)c2)c1 (centres undefined) | 7%
Cc1ccc(C(=O)NCCn2cccc2-c2nc(-c3ccccc3)no2)cc1 | -2%
Cc1nonc1CN1CCC2(CC1)C(C(=O)O)CC(=O)N2C (centres undefined) | 3%
Cc1noc(-c2cn(C3CCN(C(=O)c4cc5ccccc5[nH]4)CC3)nn2)n1 | -3%
O=C(c1ccc(F)cc1)N1CCn2c(nn(-c3ccncc3)c2=O)C1 | -14%
O=C(COc1ccc(Cl)cc1)Nc1ccc(-c2nnc3n2CCCC3)cc1 | 1%
c1csc(-c2nc3nccc(-c4ccncc4)n3n2)c1 | 3%
Cc1ccc(CNC(=O)C2CCCCC(=O)N2C)cc1 (centres undefined) | -3%
Cc1nc(C(=O)N2CC(=O)N(C3CCCCC3)CC(OCc3ccccc3)C2)cs1 (centres undefined) | -10%
CC(=O)N1CCC(N2CCC[C@H]2c2nc(-c3ccc(N4CCC(C(N)=O)CC4)nc3)no2)CC1 | 1%
CCN(CC)C(=O)[C@@H]1C[C@@H](NC(=O)C2CCCC2)CN1Cc1ccoc1 | -4%
Cc1nn(CCC#N)c(C)c1[C@@H]1C=C[C@@H](NCc2ccc(F)cc2)C1 | -3%[70.6 µM]
O=C(c1ccccc1OCc1ccccc1)N1CCC2(CC1)[C@H](O)C[C@@H]2O | -1%
COc1ccc(C(=O)N2C[C@@H](F)[C@@H](OCc3nc4ccccc4o3)C2)cc1 | 0%[70.6 µM]
O=C(Nc1cccnc1)c1nnn2c1CN(Cc1ccccc1F)C(=O)CC2 | 0%[70.6 µM]

Next part.
SMILES | NPR1 antag
CC(C)=CCn1c(-c2cc(C)oc2C)cn2cc(C(=O)N[C@@H](C)C(N)=O)nc2c1=O | 1%
C#CCNC(=O)CC[C@@H]1CNC(=O)[C@@H]2C[C@H](NC(=O)c3ccco3)CN12 | 6%[70.6 µM]
CCCNC(=O)Cc1ccc(N(Cc2ccc(C)cc2)C(=O)c2ccco2)cc1 | -2%
COc1ccc(-c2noc([C@@H](C)NC(=O)c3cc(C)n(C)n3)c2C(=O)O)cc1 | 5%[70.6 µM]
Cn1ncc(N2CCC(C(=O)N3CC=C(c4ccccc4)CC3)C2)cc1=O (centres undefined) | -13%
CC(NC(=O)c1noc(-c2ccc(F)cc2)n1)c1ccc(F)cc1 (centres undefined) | -11%
CCOc1ccc(-c2noc(-c3nc(-c4ccncc4)no3)n2)cc1 | -5%
